# RGS16-Gao – modulators of RGS16 binding to Galphao, primary screen, biochemical, human proteins, multiplexed bead flow cytometry | actives 0.38% (n = 220,000) | bead-based flow cytometry RGS16-Galphao binding, fluorescence; actives lie on both sides | binding response (% of control), % at 10 µM | Regulator of G-protein signaling 16 (Homo sapiens) + Guanine nucleotide-binding protein …;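 active = below 25% or above 175%, edge rows of some plates excepted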;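 note: Galphao activated by GDP with aluminum fluoride before binding; 100% = wells without compound and 0% = beads without RGS; some results beyond the cut were filed as inactive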
# Target sequence (O15492 whole entry, looked up): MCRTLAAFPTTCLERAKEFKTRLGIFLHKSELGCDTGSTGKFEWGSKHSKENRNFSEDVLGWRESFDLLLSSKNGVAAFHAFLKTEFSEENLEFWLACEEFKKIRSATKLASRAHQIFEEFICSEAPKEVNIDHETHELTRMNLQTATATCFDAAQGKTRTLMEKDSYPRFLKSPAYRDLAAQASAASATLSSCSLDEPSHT
# Target sequence (P09471 whole entry, looked up): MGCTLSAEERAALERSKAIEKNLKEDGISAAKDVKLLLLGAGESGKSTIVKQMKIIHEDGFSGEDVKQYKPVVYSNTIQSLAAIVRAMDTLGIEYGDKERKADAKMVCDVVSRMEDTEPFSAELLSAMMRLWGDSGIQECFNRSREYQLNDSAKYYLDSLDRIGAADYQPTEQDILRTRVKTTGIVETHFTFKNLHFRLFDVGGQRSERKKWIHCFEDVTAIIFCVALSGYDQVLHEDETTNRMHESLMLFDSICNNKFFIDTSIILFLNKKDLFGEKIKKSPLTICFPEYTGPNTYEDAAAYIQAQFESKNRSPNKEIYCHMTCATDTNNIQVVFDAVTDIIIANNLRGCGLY
# HSV augment – enhancers of HSV replication in host cells, fold increase, host cell viability | HSV replication augmentation in cells | maximum fold increase | actives 0.005% (n = 220,000) | AID 1956, 2009;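 active = peak rise of 1.5-fold or more in the series; inconclusive = self-fluorescent or not available for retest; tested in PC3 cells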;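 note: first round at 10 µM; read as green reporter fluorescence; hits show the peak of a series up to 25 µM; 1 = signal of infected wells without compound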
# PKD1 kinase inh – inhibitors of human PKD1 kinase, biochemical, fluorescence polarization | AID 797, 2007 | Serine/threonine-protein kinase D1 (Homo sapiens), Q15139 | PKD1 kinase fluorescence polarization assay | inhibition, %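 (about 10 µM by stock and volumes)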 | actives 0.056% (n = 200,000);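 active = inhibition of 50% or more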;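 note: controls were vehicle for no effect and a reference inhibitor for full effect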
# GALR2 ag – GALR2 receptor agonists, primary screen, cell-based; GALR2-expressing cells, agonist activation read-out; actives 0.48% (n = 140,000); activation, %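 (tested at 5 µM)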;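 active = above mean plus 3 SD of all compounds, about 5% in these data, not always enough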;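 note: 0% = vehicle buffer wells and 100% = reference agonist at full effect; tested in CHO reporter cells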
# Target sequence (O43603 whole entry, looked up): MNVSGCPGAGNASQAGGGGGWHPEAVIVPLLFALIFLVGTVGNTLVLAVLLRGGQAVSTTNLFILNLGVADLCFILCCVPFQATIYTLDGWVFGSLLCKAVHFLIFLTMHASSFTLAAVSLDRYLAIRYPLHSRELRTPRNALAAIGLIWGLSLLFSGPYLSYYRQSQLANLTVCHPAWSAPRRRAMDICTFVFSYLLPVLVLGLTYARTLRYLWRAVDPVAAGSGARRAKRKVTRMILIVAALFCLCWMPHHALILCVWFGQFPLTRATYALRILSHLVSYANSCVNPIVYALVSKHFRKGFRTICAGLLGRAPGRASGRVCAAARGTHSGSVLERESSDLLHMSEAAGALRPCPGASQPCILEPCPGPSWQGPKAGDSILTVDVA
# Insulin prom inh – inhibitors of insulin promoter-driven GFP, primary screen, imaging, TRM-6 cells (human fetal islet line), eGFP reporter, cell count. reporter expression induced with tamoxifen. inhibition, % at 2 µM. actives 0.9% (n = 130,000). AID 1273, 2008;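 active = inhibition above the mean plus 3 SD, with well images judged a real hit on visual review, cut at about 60% in these data, passing the limit was not always enough; inconclusive = inhibition over the cutoff but images rejected on review; inactive = inhibition not above the cutoff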
# Insulin prom inh cell count – second read-out of Insulin prom inh, no call of its own (marks repeat the call); normalized cell count, %; measured here: cell count, toxicity; reference of the scale not given here;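 cells exposed to compound for 48 h; stained nuclei by imaging scaled within each plate; lower means fewer cells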
# HSV augment primary fold – recorded beside HSV augment, whose call it bears; fold increase; compound at 10 µM; measured here: primary screen fold increase 10 uM; tested in PC3 cells;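 GFP signal in the first replicate; 1 = infected wells without compound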
# Starred values were filed as active, the others as inactive; i = inactive; u = inconclusive; x = not tested or not shown. No enrichment for hits (roughly 1.3% active in at least one column).
Structure	RGS16-Gao	HSV augment	HSV augment primary fold	PKD1 kinase inh	GALR2 ag	Insulin prom inh	Insulin prom inh cell count
CCC(C)(C)NC(=O)C(Sc1ccccc1)c1ccccc1 (centres undefined)	93	i	1.1	0	x	x	x
COc1cc2c(=O)c(-c3ccc(O)cc3)coc2cc1OC1OC(CO)C(O)C(O)C1O (centres undefined)	105	i	0.91	-3	-0.5	-30	116
Nc1ccc(Cc2nc3c(ccc4ccccc43)[nH]2)cc1	100	i	0.96	-18	-1.4	27	70
CCN1C(=O)C(O)(CC(=O)/C=C/C=C/c2ccccc2)c2ccccc21 (centres undefined)	104	x	x	0	-1.9	x	x
COc1ccc(/C=C/C(=O)NCCc2nc3ccccc3[nH]2)cc1	105	i	0.95	x	x	x	x
CCOCC(=O)Nc1cccc(NC(C)=O)c1	99	i	0.75	2	-1.2	-5	101
Cc1ccc(CC2CC(=O)N(c3ccncc3)C2=O)cc1 (centres undefined)	104	i	0.95	-3	-0.6	x	x
COc1ccccc1S(=O)(=O)Nc1cccc(-c2nnc3n2CCCCC3)c1	96	i	0.97	0	-1.2	8	40
CN1CCN(S(=O)(=O)c2cccc(C(=O)O)c2)CC1	98	i	0.8	-1	x	56	98
COc1cccc(C2=CC(c3ccc(N(C)C)cc3)n3ncnc3N2)c1 (centres undefined)	103	u	x	-15	0.6	0	107
COCc1[nH]nc2c1C1(CCSCC1)C(C#N)=C(N)O2	96	i	1	-7	-0.4	-26	104
Cc1ccccc1OCC(=O)NCCN(C)C	106	i	1.1	-5	-1.8	x	x
CCN(CC)S(=O)(=O)c1ccc(-c2nnc(SCC(=O)c3ccc(OC)cc3)o2)cc1	102	i	0.9	-11	-1.8	57	125
Cc1cccc(-n2ncc3c(NCc4ccc5c(c4)OCO5)ncnc32)c1	99	i	0.72	-1	-0.3	11	119
CCN(C1CCS(=O)(=O)C1)S(=O)(=O)c1cccc([N+](=O)[O-])c1 (centres undefined)	103	i	0.99	7	x	x	x
O=C(NCCCCO)C(F)(F)C(F)(F)C(F)(F)C(=O)NCCCCO	97	i	0.88	-11	-2.7	23	75
Cc1ccc([N+](=O)[O-])c(OCCN2CCC(Cc3ccccc3)CC2)c1	107	i	0.81	-5	x	x	x
COc1ccc(S(=O)(=O)N(CCC(=O)O)Cc2ccccc2)cc1	87	i	1.1	-5	x	-36	111
O=C(Cn1nc(C(=O)O)c2ccccc2c1=O)c1c[nH]c2ccccc12	100	i	0.87	x	x	x	x
Cc1ccc(OC(=O)Nc2ccccc2)cc1	96	i	0.92	4	x	x	x
Cc1c(N=Cc2ccncc2)c(=O)n(-c2ccccc2)n1C	101	i	1	-3	-1.3	38	159
N/C(=N\OC(=O)c1cc(Br)ccc1Cl)c1cccnc1	100	i	0.91	-7	x	x	x
Cc1nn(Cc2ccccc2)c(Cl)c1/C=N/NC(=O)CNc1cccc(C(F)(F)F)c1	112	i	0.91	-3	0.4	34	114
CCCC(=O)NC(c1ccc(OCC)cc1)c1ccc(OC)c(OC)c1 (centres undefined)	111	i	1.2	x	x	x	x
COCCN(C(=O)CCC(=O)Nc1ccccn1)C(C(=O)NC1CCCC1)c1ccc(OC)cc1 (centres undefined)	90	i	0.84	-5	0.3	19	76
C=CCN1C(=O)/C(=C\c2ccc(Cl)cc2)N=C1SCC(=O)NCCC	99	i	0.99	-7	-2.4	-10	120
COc1ccccc1-c1cn[nH]c1-c1ccc(OCc2ccccc2F)cc1O	98	i	0.8	x	x	x	x
CCOC(=O)C1CCN(c2nc3ccccc3nc2C(C#N)C(=O)OC(C)COC)CC1 (centres undefined)	96	x	x	2	-0.3	-34	101
COc1cc(CN2CCNC(=O)C2CC(=O)N(C)Cc2cccnc2)cc(OC)c1 (centres undefined)	101	i	0.9	-4	x	x	x
COc1ccc(/C=N/NC(=O)c2ccc(CSc3nc(C)cc(C)n3)cc2)c(OC)c1OC	114	i	0.81	-4	-0.5	-57	124
CN(C)c1ccc(CNn2cnnc2)cc1	103	i	0.93	-6	-2.1	-456	27
Cc1nnc(SCC(N)=O)n1CCc1ccccc1	124	i	0.93	3	-1.4	72	94
CCN(CC)CCNC(=O)c1ccc(CS(=O)(=O)c2ccc(Br)cc2)o1	102	i	1.4	-11	0.2	x	x
Cc1ccc(S(=O)(=O)N2CCOCC2)cc1NC(=O)Cn1ccsc1=N	97	x	x	-4	0.9	5	121
Cc1ccc2c(c1)[nH]c1c(=O)n(CCCN3CCOCC3)cnc12	103	i	0.87	-2	-1.5	-36	88
COc1ccc(-c2cnn(C3CCS(=O)(=O)C3)c2N)cc1 (centres undefined)	101	i	1	-5	-3.4	-12	161
CC(C)CNC(=O)c1ccccc1NC(=O)CN(c1ccccc1)S(=O)(=O)N(C)C	83	i	1.1	3	x	x	x
CCN1CCN(CC(=O)N2N=CCC2c2ccccc2)CC1 (centres undefined)	104	i	1.1	x	x	x	x
CCCC(=O)Nc1c(-c2ccccc2)c(=O)c(C)nn1-c1ccccc1	96	i	0.98	x	x	x	x
COc1ccc(CCNC(=O)C2CCCN(S(=O)(=O)c3cccc4nonc34)C2)cc1OC (centres undefined)	102	i	0.83	1	-0.1	-3	44

# 6 structures from above, arranged by molar mass, low to high:
Structure	RGS16-Gao	HSV augment	HSV augment primary fold	PKD1 kinase inh	GALR2 ag	Insulin prom inh	Insulin prom inh cell count
Cc1nnc(SCC(N)=O)n1CCc1ccccc1	124	i	0.93	3	-1.4	72	94
CCN1CCN(CC(=O)N2N=CCC2c2ccccc2)CC1 (centres undefined)	104	i	1.1	x	x	x	x
Cc1ccc2c(c1)[nH]c1c(=O)n(CCCN3CCOCC3)cnc12	103	i	0.87	-2	-1.5	-36	88
CC(C)CNC(=O)c1ccccc1NC(=O)CN(c1ccccc1)S(=O)(=O)N(C)C	83	i	1.1	3	x	x	x
CCN(CC)CCNC(=O)c1ccc(CS(=O)(=O)c2ccc(Br)cc2)o1	102	i	1.4	-11	0.2	x	x
COc1ccc(CCNC(=O)C2CCCN(S(=O)(=O)c3cccc4nonc34)C2)cc1OC (centres undefined)	102	i	0.83	1	-0.1	-3	44

# Continued.
Structure	RGS16-Gao	HSV augment	HSV augment primary fold	PKD1 kinase inh	GALR2 ag	Insulin prom inh	Insulin prom inh cell count
CCCC(c1nnnn1Cc1ccco1)N1CCN(C2CCCC2)CC1 (centres undefined)	98	i	0.7	5	-1.8	x	x
COc1ccc(C(=O)Nc2ccc(Oc3ncnc4sc(-c5ccccc5)cc34)cc2)cc1OC	100	i	0.77	-6	-1.6	38	144
Cc1csc(NC(=O)CSc2nnc(-c3ccoc3C)n2Cc2ccco2)n1	77	i	1	-2	-1.7	x	x
Cc1cc(=O)[nH]c(-c2ccccc2O)n1	100	i	0.93	-4	-3.8	x	x
CC(C)[C@H](NC(=O)OC(C)(C)C)C(=O)N/N=C/c1cccc2nccnc12	-210	i	0.93	0	-0.9	60	125
CN(C)C(=O)CSc1nc2ccccc2c(=O)[nH]1	109	i	0.88	-6	-3.6	23	107
O=C(Nc1cccnc1)C1(F)C(F)(F)C(F)(F)C(F)(F)C(F)(F)C1(F)F	105	i	0.81	-4	-3.2	50	160
CCn1c(C)nc2cc(C(=O)N/N=C/c3cccc(OC)c3O)ccc21	87	i	0.83	0	x	x	x
O=C(COC(=O)c1cc(=O)[nH]c2ccccc12)NCc1cccs1	98	i	1.3	x	x	x	x
O=C(CSc1nnc(-c2ccco2)n1CC1CCCO1)c1ccccc1 (centres undefined)	102	i	0.88	-1	-0.4	15	150
Cc1ccccc1CN1CCN(C(=O)c2cccc(F)c2)CC1	113	i	0.99	-3	-2.4	-114	74
O=C1c2ccccc2C(=O)N1c1ccccc1S(=O)C(F)(F)F (centres undefined)	103	i	0.96	-3	-1.9	x	x
O=S(=O)(c1cccc2cccc(Cl)c12)N1CCCC1	97	i	0.99	-7	x	x	x
CC(=O)Cc1nsc(NC(=O)c2ccc(COc3ccc(C)cc3)o2)n1	93	i	0.96	7	-1.0	x	x
COc1ccccc1C(C)NCC(=O)Nc1ccccc1C(F)(F)F (centres undefined)	42	i	1.1	-7	-0.6	-27	124
CCOc1ccc(OCC)c(NC(=O)CSc2nc3ccccc3c(=O)n2C)c1	94	i	0.8	2	-1.0	x	x

# Compound profiles, as listed above:
# CCOCC(=O)Nc1cccc(NC(C)=O)c1 as listed: RGS16-Gao: 99; HSV augment: i; HSV augment primary fold: 0.75; PKD1 kinase inh: 2; GALR2 ag: -1.2; Insulin prom inh: -5; Insulin prom inh cell count: 101
# COc1cc(CN2CCNC(=O)C2CC(=O)N(C)Cc2cccnc2)cc(OC)c1 (centres undefined) as listed: RGS16-Gao: 101; HSV augment: i; HSV augment primary fold: 0.9; PKD1 kinase inh: -4; GALR2 ag: x; Insulin prom inh: x; Insulin prom inh cell count: x
# Cc1c(N=Cc2ccncc2)c(=O)n(-c2ccccc2)n1C as listed: RGS16-Gao: 101; HSV augment: i; HSV augment primary fold: 1; PKD1 kinase inh: -3; GALR2 ag: -1.3; Insulin prom inh: 38; Insulin prom inh cell count: 159

# Continued:
Structure	RGS16-Gao	HSV augment	HSV augment primary fold	PKD1 kinase inh	GALR2 ag	Insulin prom inh	Insulin prom inh cell count
CCCC1=[N+](CC(=O)c2ccc(Br)cc2)CCn2cccc21	96	i	1.1	x	x	x	x
N#Cc1ncc(C(F)(F)F)cc1Sc1ccc(N)cc1	94	i	0.83	-4	2.2	-8	75
CCn1c(=O)c([N+](=O)[O-])c(NCCN(C)C)c2ccccc21	111	i	1.2	5	x	x	x
C=CCNC(=O)C(C)Sc1ccc(Cl)cc1 (centres undefined)	97	i	0.97	3	-2.8	-317	83
CCCOC(=O)c1c(NC(=O)CSc2nc(-c3ccco3)cc(C(F)(F)F)n2)sc(C(=O)OC)c1C	100	i	0.91	2	-4.6	x	x
COc1ccc(-c2cc(=O)c3ccccc3[nH]2)cc1	94	i	0.87	1	-2.4	-33	98
O=C(Cc1ccc(F)cc1)Nc1ccc(F)c([N+](=O)[O-])c1	105	i	0.94	3	-1.4	-58	123
CCN(CC)S(=O)(=O)c1ccc(C(=O)NCc2ccc3c(c2)OCO3)cc1	92	i	0.94	-9	x	79*	70*
CC1CCCCN1CCNC(=O)C1CC(=O)N(c2ccc(F)c(Cl)c2)C1 (centres undefined)	103	i	0.95	3	-0.6	-12	126
Cc1ccc(-c2csc(=S)[nH]2)cc1	102	i	0.98	-1	x	40	74
COc1cc2c(cc1NC(=O)CSCC(=O)O)oc1ccccc12	104	i	0.88	-6	-2.0	7	112
CC(C)(C)NC(=O)Cc1ccc(Cl)c(Cl)c1	104	i	1	-9	x	x	x
O=C(N/N=C\c1ccc2c(c1)OCO2)c1ccc(Cn2cc(Br)c([N+](=O)[O-])n2)o1	108	i	1.1	-2	x	67	79
Cc1cccc(CN2CCC(C(N)=O)CC2)c1	99	i	0.82	1	-1.7	-6	124
O=c1c(-c2ccccc2)coc2c(CN3CCCC3)c(O)ccc12	102	i	0.92	6	-2.9	29	150

# Compound activity deposited in PubChem BioAssay by several laboratories.
